HTT promoter inh – inhibitors of huntingtin promoter activity; HEK293 HTT promoter firefly luciferase reporter (activity 0% = vehicle and -100% = no light), 24 h; Potency, µM (highest dose often 57.5 µM), without a hit: at the highest dose activity change, negative = inhibition, actives largely listed as inhibitors; 0.93% of 48,000 active; AID 1508623; active = well fitted inhibition curve with a large enough effect; inconclusive = small, poorly fitted or top-dose-only effect; inactive = no such curve, though single readings can be large or run the other way; note: nearly all actives have a fitted effect of over 50% in size
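Quantitative HTS used concentration series of up to 57.5 uM final on HEK293 luciferase reporter cells, 24 h at 37 degrees C. Readout was Dual-Glo firefly luminescence.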
PMP22 txn – PMP22 gene transcription modulation | S16 Pmp22-F2sN Schwann cells (luciferase reporters placed in the Pmp22 gene), FLuc/NLuc coincidence luminescence, 24 h | Potency, µM (doses to about 57.5 µM), for inactives: at the top dose activity change, negative = inhibition, hits mostly inhibitors | 2% of 43,000 active; active = clear falling dose curves in both reporters; inconclusive = both reporters move, but less clearly or upward; inactive = either reporter flat; the % is the NLuc reporter signal; note: % is set by controls: 0 for no effect and ±100 for the full control effect; some results filed as inactive show a strong effect at the top dose
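Luminescent read-out of sequential FLuc and NLuc signals from a reporter embedded in the Pmp22 3' UTR of S16 Schwann cells, taken after 24 h compound exposure at 37C; compounds reducing both signals score as inhibitors of expression.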
Starred values were filed as active, the others as inactive; ? = inconclusive; . = no result given; [ ] = another dose, or the depositor's remark. Potency is the fitted concentration of half-maximal effect.

item | Structure | HTT promoter inh | PMP22 txn
1 | CCOc1ccc(OCC)c(NC(=O)CCc2nc3cccnc3n2Cc2cccs2)c1 | -24% | -9%
2 | O=C(O)CCc1ccc(-c2ccccc2)n1CC(=O)Nc1ccccc1C(F)(F)F | -11% | 4%
3 | COC(=O)c1ccc(C2C(C(=O)Nc3ccccc3)=C(C)Nc3nc4ccccc4n32)cc1 (stereo unspecified) | 2% | -52%
4 | Cc1ccc(-c2nnc(Nc3cccc(Cl)c3)c3ccccc23)cc1S(=O)(=O)N1CCOCC1 | 22% | -6%
5 | CCC(C)CCCCC(=O)N[C@@H](CCN)C(=O)NC(C(=O)N[C@H](CCN)C(=O)N[C@@H]1CCNC(=O)C([C@@H](C)O)NC(=O)[C@@H](CCN)NC(=O)[C@@H](CCN)NC(=O)[C@@H](CC(C)C)NC(=O)[C@H](Cc2ccccc2)NC(=O)[C@H](CCN)NC1=O)[C@@H](C)O (stereo partly specified) | -5% | .
6 | COc1c(C)cccc1C(=O)Nc1cccc2ccc(C)nc12 | -23% | -21%
7 | CN(Cc1ccccc1)C(=O)c1ccc(CSc2nc3cccnc3n2Cc2ccccc2F)cc1 | ? | ?
8 | CCc1ccc(NC(=O)CSc2nc(-c3ccccc3)c(C#N)c(=O)[nH]2)cc1 | -6% | ?
9 | Cc1nc2cc(-c3ccccc3)nn2c(C)c1CCC(=O)N1CCN(c2ccc(F)cc2)CC1 | 2µM* | ?
10 | CCOC(=O)c1[nH]c2c(c1Cc1ccccc1OC)C(=O)CC(c1ccc(OCC)cc1)C2 (stereo unspecified) | ? | -19%
11 | CCCN1CCN(CCCNC(=O)Cn2nc(CC)n3c(cc4occc43)c2=O)CC1 | -15% | -14%
12 | Cc1ccc(S(=O)(=O)N(CC(O)Cn2c3ccccc3c3ccccc32)c2cccc(C(=O)NCCO)c2)cc1 (stereo unspecified) | -25% | ?
13 | CCc1cccc(-n2nnc(-c3nsc(NC(=O)c4ccc(C)cc4)n3)c2C)c1 | ? | -39%
14 | COc1ccc(Cl)cc1NC(=O)c1cn(C2CCCC2)c(=O)c2c1c1ccccc1n2C | -4% | ?
15 | Cc1ccccc1CCNC(=O)C1CCN(c2nc3ccccc3nc2C(F)(F)F)CC1 | -22% | 6%
16 | COc1ccccc1OCC(=O)NCC1(N(C)C)CCCCC1 | 74%[activator] | -7%
17 | O=C(CCN1C(=O)c2ccccc2Sc2ncccc21)Nc1ccc(F)cc1F | -9% | 0%
18 | COc1ccc(CCNC(=O)CCc2cn(Cc3ccc(C)cc3)c3ccccc23)cc1OC | -27% | -6%
19 | NC(=O)C1(N2CCCCC2)CCN(C(=O)Nc2ccc(F)cc2)CC1 | 15% | 12%
20 | Cc1ccc(C)c(N2CCN(C(=O)c3cc4c(=O)n(Cc5cccnc5)ccc4nc3C)CC2)c1 | -16% | -1%
21 | CCCS(=O)(=O)N1CC(=O)N(c2ccccc2C)C(C)(C(=O)NC2CCCCC2)C1 (stereo unspecified) | 0% | -18%
22 | Cc1cccc(NC(=O)Cn2c(=O)oc3cc(S(=O)(=O)NCc4ccccc4)ccc32)c1 | ? | 11µM*
23 | CCOc1ccccc1CNS(=O)(=O)c1ccc(-c2coc(C)n2)cc1 | ? | ?
24 | CCOC(=O)Cn1c(=O)n(-c2ccc(Cl)cc2)c2nc(-c3ccc(Cl)cc3)nc(C(N)=O)c21 | -4% | -26%
25 | COc1ccc(CCNC(=O)c2cnn(-c3ccc(F)cc3)c2C2CCN(C(=O)OC(C)(C)C)CC2)cc1OC | -14% | -7%

Entries above with a CF3 group, in the order listed:
item | Structure | HTT promoter inh | PMP22 txn
2 | O=C(O)CCc1ccc(-c2ccccc2)n1CC(=O)Nc1ccccc1C(F)(F)F | -11% | 4%
15 | Cc1ccccc1CCNC(=O)C1CCN(c2nc3ccccc3nc2C(F)(F)F)CC1 | -22% | 6%

Other results
item | Structure | HTT promoter inh | PMP22 txn
26 | Cc1ccc(-c2nc(C)c(CCNC(=O)c3ccco3)s2)cc1 | 10% | -10%
27 | CCOC(=O)c1nnc2c(-c3ccc(Cl)cc3)c(C)nn2c1C | -6% | -5%
28 | CCOC(=O)c1c(NC(=O)CSc2cn(CCNC(=O)c3c(F)cccc3F)c3ccccc23)sc2c1CCC2 | -26% | -29%
29 | CCCCNC(=O)c1c(-c2ccccc2)c(-c2ccccc2)nn(C)c1=O | -7% | 2%
30 | COc1cc(Cl)c(S(=O)(=O)NCCc2c(C)[nH]c3c(C)cccc23)cc1Cl | -17% | -11%
31 | COc1ccc(C(=O)CCC(=O)Nc2cc(C)ccc2C)cc1 | -15% | -2%
32 | CCc1noc(-c2ccc(NC(C)c3ccccc3)c([N+](=O)[O-])c2)n1 (stereo unspecified) | -19% | -43%
33 | COc1cc(CN(C(=O)c2ccccc2F)C2CCS(=O)(=O)C2)cc(OC)c1OC (stereo unspecified) | -16% | -12%
34 | O=C(NCc1cccs1)c1ccc(Cn2c(SCc3ccc(F)cc3)nc3cccnc32)cc1 | ? | -74%
35 | Cc1ccc(C)c(NC(=O)c2ccc3c(c2)CCN3S(C)(=O)=O)c1 | -1% | -3%
36 | Cc1ccc(CSC2=Nc3ccccc3C3=NC(CC(=O)NCc4cccs4)C(=O)N23)cc1 (stereo unspecified) | 4% | -61%
37 | CCc1cccc(C)c1NS(=O)(=O)c1ccc(-n2cccn2)cc1 | ? | ?
38 | COc1ccc(C2(C#N)CCC(C(=O)O)CC2)cc1OC1CCCC1 (stereo unspecified) | 33%[activator] | .
39 | COc1ccc(OCC(=O)NCc2ccc3c(c2)CCN3C(=O)c2ccccc2)cc1 | -25% | ?
40 | CCCS(=O)(=O)Nc1ccc(F)c(C(=O)c2c[nH]c3ncc(Cl)cc23)c1F | ? | .
41 | CCCCNC(=O)Cn1cnc2sc(C)c(S(=O)(=O)N3CCN(c4ccccc4OC)CC3)c2c1=O | -12% | 9%
42 | CCN(Cc1ccccc1)Cc1c(O)ccc2oc(C)c(C(=O)Nc3ccc(C)cc3C)c12 | ? | ?
43 | CCN1CCN(C(c2cccc(F)c2)c2c(O)cc(C)n(Cc3ccco3)c2=O)CC1 (stereo unspecified) | -4% | 8%
44 | NC(=O)CSc1oc(-c2ccco2)nc1S(=O)(=O)c1ccc(Br)cc1 | -19% | 5%
45 | CNC(=O)c1c(NC(=O)c2nc(SCc3ccc(C)cc3)ncc2Cl)sc2c1CCCC2 | -7% | -5%
46 | CCOC(=O)c1c(C)[nH]c(C)c1S(=O)(=O)N1CCCC(C(=O)NCc2cccc(C)c2)C1 (stereo unspecified) | -19% | 44%
47 | Cc1ccc2nc(CN3CCN(S(=O)(=O)c4ccc(C)c(C)c4)CC3)oc2c1 | 2% | -1%
48 | COC(=O)C1CCN(C(c2ccccc2Cl)c2sc3nc(-c4ccco4)nn3c2O)CC1 (stereo unspecified) | -8% | 7%
49 | COc1ccc(-c2nc3ccccc3o2)cc1NC(=O)c1ccc(N2CCC(C)CC2)c([N+](=O)[O-])c1 | 48%[activator] | -3%
50 | COc1cc(NS(=O)(=O)c2ccc3c(c2)CCCN3C(C)=O)cc(OC)c1OC | ? | -11%

Rewritten as labelled records: part of the list above.
31) COc1ccc(C(=O)CCC(=O)Nc2cc(C)ccc2C)cc1
  HTT promoter inh = -15%; PMP22 txn = -2%

32) CCc1noc(-c2ccc(NC(C)c3ccccc3)c([N+](=O)[O-])c2)n1 (stereo unspecified)
  HTT promoter inh = -19%; PMP22 txn = -43%

33) COc1cc(CN(C(=O)c2ccccc2F)C2CCS(=O)(=O)C2)cc(OC)c1OC (stereo unspecified)
  HTT promoter inh = -16%; PMP22 txn = -12%

34) O=C(NCc1cccs1)c1ccc(Cn2c(SCc3ccc(F)cc3)nc3cccnc32)cc1
  HTT promoter inh = ?; PMP22 txn = -74%

Whole records, looked up by structure. Screens in order: HTT promoter inh | PMP22 txn
COc1ccc(C(=O)CCC(=O)Nc2cc(C)ccc2C)cc1 is entered as -15% | -2%
CCN(Cc1ccccc1)Cc1c(O)ccc2oc(C)c(C(=O)Nc3ccc(C)cc3C)c12 is entered as ? | ?

New compounds follow:
item | Structure | HTT promoter inh | PMP22 txn
51 | CCOc1ccc(NC(=O)C(Cc2ccccc2)NS(=O)(=O)c2ccc3c(c2)oc(=O)n3C)cc1 (stereo unspecified) | -32% | ?
52 | CCOc1ccccc1Nc1ncnc2c1c(-c1ccccc1)cn2-c1ccc(OC)cc1 | -20% | ?
53 | Cc1noc(-c2ccc(-c3noc(-c4ccc(C(F)(F)F)cc4)n3)cc2)n1 | -2% | 8%
54 | Cc1cccc(NC(=O)c2ccc(F)c(S(=O)(=O)NCc3ccc4c(c3)OCO4)c2)c1 | ? | 3%
55 | Cc1ccc(C2C=C(c3ccc(F)cc3)Nc3nc(CCCO)nn32)cc1 (stereo unspecified) | -14% | -1%
56 | Cc1cccc(N2CCN(C(=O)Cn3cnc4sc(C)c(S(=O)(=O)N5CCN(c6ncccn6)CC5)c4c3=O)CC2C)c1 (stereo unspecified) | -9% | ?
57 | COc1ccc(N2CCN(C(=O)c3cc4c(-c5ccccc5F)nn(C)c4s3)CC2)cc1 | ? | -21%
58 | CC(C)N(Cc1ccccc1)C(=O)CN1C(=O)COc2ccc(S(=O)(=O)N3CCCCCC3)cc21 | -14% | ?
59 | CCc1ccccc1Nc1cc(C(=O)NCc2ccc(C)cc2)c2ccccc2n1 | -8% | -25%
60 | Cc1ccc(CNS(=O)(=O)c2ccc3[nH]c4c(c3c2)CCCC4)cc1 | 8% | 0%
61 | CCc1ccc(C2=CC(c3cccc(C)c3)n3c(nc4ccccc43)N2)cc1 (stereo unspecified) | -35% | ?
62 | COc1ccc(C(CNC(=O)c2ccc(C)cc2)N2CCOCC2)cc1 (stereo unspecified) | -6% | -8%
63 | CCc1ccccc1N(CC)C(=O)C1CCN(c2ncnc3c2nc2n3CCCCC2)CC1 | ? | ?
64 | COc1cc(-c2nnc(SCC(=O)Oc3ccccc3)o2)cc(OC)c1OC | 4% | -6%
65 | COc1ccc(N(C)C(=O)CCS(=O)(=O)c2cccc3nsnc23)cc1 | -12% | -8%
66 | CCCCOC(=O)c1c(N)n(-c2ccc(OC)cc2OC)c2nc3ccccc3nc12 | -3% | ?
67 | Cc1ccc(OCc2cc(=O)n3ccsc3n2)c(NC(=O)c2ccco2)c1 | -3% | ?
68 | Cc1ccc2c(c1)c1c(c(=O)n(-c3ccccc3)c(=O)n1Cc1ccccc1C)n2C | -3% | 7%
69 | Cc1nc2nc(SCC(=O)Nc3cccc(Cl)c3)nn2c(C)c1Cc1ccccc1 | ? | -9%
70 | Cc1ccc(CNC(=O)c2ccccc2NC(=O)c2nsc3ccccc23)cc1 | 42%[activator] | -10%
71 | Cc1cc(Nc2cccc(C(F)(F)F)c2)nc2ccc(NC(=O)c3cccnc3)cc12 | ? | ?
72 | Cc1cc(C(=O)NCc2ccccc2C)c2c(C)nn(-c3cccc(F)c3)c2n1 | -19% | 1%
73 | CCOc1ccccc1NC(=O)C(NS(=O)(=O)c1cccc2nsnc12)c1ccccc1 (stereo unspecified) | -4% | -6%
74 | O=C(C1COc2ccccc2O1)N1CCN(c2nc3ccc(F)cc3s2)CC1 (stereo unspecified) | ? | -85%
75 | Cc1ccc(CNC(=O)c2sc3nc(C)cc(C)c3c2-n2cccc2)cc1 | -2% | ?
76 | CCN(CC)S(=O)(=O)c1ccc(NC(=O)CN(c2ccccc2)S(=O)(=O)N(C)C)cc1 | -12% | -3%
77 | CCSc1nc2n(n1)C(c1ccc(CC)cc1)C(C(=O)Nc1ccccc1OC)=C(C)N2 (stereo unspecified) | 0% | 31%
78 | COc1ccccc1NC(=O)CN1C(=O)c2cccc3cccc1c23 | ? | 16%
79 | COc1cc(N2CCC(C(N)=O)CC2)ccc1Nc1nc(N)c(Cl)c(Nc2ccccc2S(=O)(=O)C(C)C)n1 | ? | .
80 | O=c1nc2c(-c3ccc(F)cc3Cl)n[nH]n2c2ccccc12 | 8% | ?
81 | Cc1cn2c(=O)cc(COc3ccc(NC(=O)c4ccc(C(C)(C)C)cc4)cc3)nc2s1 | -12% | ?
82 | Cc1ccc(CNC(=O)c2ccc(N3CCCC3)c(NC(=O)Nc3ccc(C)cc3)c2)cc1 | -2% | -19%
83 | CCOc1ccc(-c2nc(C(N)=O)c3c(n2)n(-c2ccc4c(c2)OCO4)c(=O)n3CC)cc1 | -7% | -17%
84 | CCCOc1ccc(Oc2nc(NC)nc(N3CCOCC3)n2)nn1 | 0% | -26%
85 | COc1cccc(Cn2c(-c3nonc3NC(C)=O)nc3ccccc32)c1 | ? | ?
86 | CCOc1ccc(C2CC(=O)N(c3cccc(F)c3)C3=C2C(=O)OC3)cc1 (stereo unspecified) | 21% | 3%
87 | COc1cccc(C2c3c(-c4ccccc4O)n[nH]c3C(=O)N2CCc2ccc(OC)c(OC)c2)c1 (stereo unspecified) | -30% | ?
88 | CCOc1ccc2nc(N(Cc3cccnc3)C(C)=O)sc2c1 | -2% | -6%
89 | CCOC(=O)c1ccc(CN(Cc2ccc(F)cc2)S(=O)(=O)c2ccc(F)c(C(=O)Nc3cc(Cl)ccc3OC)c2)cc1 | -12% | -7%
90 | Cc1ccc(S(=O)(=O)NCCc2csc(-c3cccc(F)c3)n2)cc1 | ? | ?
91 | COc1ccc(NC(=O)c2oc3ccccc3c2NC(=O)c2cc3ccccc3o2)c(OC)c1 | -1% | ?
92 | Cc1ccc2c(=O)cc(C(=O)N(Cc3ccc(C(C)(C)C)cc3)C3CCS(=O)(=O)C3)oc2c1 (stereo unspecified) | -3% | ?

Source: PubChem
